From PubChem BioAssay
Arbovirus inh: antivirals against arbovirus infection; arbovirus infection cell-based antiviral screen; inhibition, % at 10 µM; actives 0.37% (n = 200,000); AID 1251;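 active means inhibition from about 30%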;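 further: bluetongue infection of BSR cells; cell survival read as ATP light after 72 h; 0% = infected wells without compound and 100% = uninfected wells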
Mtb growth: M. tuberculosis H37Rv growth inhibitors, H37Rv strain (AID 1626); actives 0.95% (n = 220,000); inhibition, % at 10 µM; hits with a dose series show IC50 in µM; M. tuberculosis H37Rv growth inhibition; higher % means a stronger effect;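 active means confirmed in a dose series; inconclusive means inhibition above 80% but not taken into the dose series; inactive means below 80% or under 30% at every dose of the series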;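 further: bacteria incubated seven days before Alamar blue readout; 0% = bacteria only wells and 100% = bacteria with antibiotic wells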
YopH inh: YopH (Yersinia) phosphatase inhibition; fluorescence Ex485/Em525; inhibition, %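 (about 10 µM by stock and volumes)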; actives 0.16% (n = 140,000);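 active means inhibition of 50% or more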;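 further: controls were vehicle for no effect and minimum signal wells for full effect; inactives centre near -20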
RecA intein inh: Mtb RecA intein splicing inhibition; P9WHJ3; cell-free RecA intein splicing, fluorescence; inhibition, %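 (about 9 µM by stock and volumes)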; actives 0.75% (n = 290,000); AID 2221; in the data active means inhibition above about 30%; inconclusive means no clear call, values can overlap the other calls;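 further: 0% = vehicle wells and 100% = reference inhibitor control wells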
Target sequence (P9WHJ3 whole entry, looked up): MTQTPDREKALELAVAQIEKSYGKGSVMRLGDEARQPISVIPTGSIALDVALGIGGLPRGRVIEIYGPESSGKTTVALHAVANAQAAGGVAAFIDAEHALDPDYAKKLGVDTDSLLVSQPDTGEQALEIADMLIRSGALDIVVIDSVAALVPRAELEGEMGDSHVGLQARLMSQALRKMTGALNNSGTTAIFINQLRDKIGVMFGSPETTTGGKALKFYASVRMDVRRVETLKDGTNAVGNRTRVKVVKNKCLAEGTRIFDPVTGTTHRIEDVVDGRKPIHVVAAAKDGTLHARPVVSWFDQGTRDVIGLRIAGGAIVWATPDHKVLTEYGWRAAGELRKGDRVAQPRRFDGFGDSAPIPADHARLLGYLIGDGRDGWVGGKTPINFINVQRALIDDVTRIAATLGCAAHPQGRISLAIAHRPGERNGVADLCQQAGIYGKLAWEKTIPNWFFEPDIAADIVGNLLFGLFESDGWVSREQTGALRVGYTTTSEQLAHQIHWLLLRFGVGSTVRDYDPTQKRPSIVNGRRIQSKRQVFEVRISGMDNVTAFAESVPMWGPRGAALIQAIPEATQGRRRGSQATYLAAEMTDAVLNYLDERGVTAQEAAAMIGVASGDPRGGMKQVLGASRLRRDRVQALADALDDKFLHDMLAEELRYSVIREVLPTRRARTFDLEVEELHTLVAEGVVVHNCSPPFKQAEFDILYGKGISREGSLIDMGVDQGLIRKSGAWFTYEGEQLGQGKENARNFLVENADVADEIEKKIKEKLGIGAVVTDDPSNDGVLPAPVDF
Mtb betalactam: beta-lactam sensitization of Mtb H37Rv; M. tuberculosis H37Rv growth with meropenem, percent inhibition; hits of this screen are not shown here; inhibition, % at 25 µM; actives 0.27% (n = 330,000); AID 434955;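 active means about 74% or more and at least 40 points above the plate without the antibiotic, then above 30% in a dose series; inconclusive means first-round hits that could not be retested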;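 further: growth measured after seven days incubation then overnight dye step; 0% = bacteria only wells and 100% = bacteria with antibiotic; twin plates without the antibiotic show which effects depend on it; some results filed as inactive read as strong as hits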
Arbovirus inh repeat: second read-out of Arbovirus inh, no call of its own (marks repeat the call); inhibition, %; measured here: 10K subset replicate screen; many hits read low in the repeat;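 first of two repeat runs on a subset; 0% = infected and 100% = uninfected wells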
* hit, by the source's call; ? = inconclusive; · = no result given. These rows are one share of the data; rates above refer to the full screens.

SMILES	Arbovirus inh	Mtb growth	YopH inh	RecA intein inh	Mtb betalactam	others
COc1ccc(CNC(=O)C(C)OC(=O)C23CC4CC(CC(O)(C4)C2)C3)cc1 (stereo not drawn)	6.5	0.8%	-16.9	0.0	-3.2
Cc1nn(C)cc1NC(=O)c1cc2nc(-c3ccco3)cc(C(F)(F)F)n2n1	-4.6	-5.7%	·	-1.7	1.2
CCCNC(=S)Nc1ccc(Cl)cc1Cl	6.6	2.3%	-23.2	2.3	-3.4
COc1cc(SC)ccc1C(=O)Nc1c(C)cccc1C	-1.3	8.5%	·	0.1	92.3
Cc1ccc(-c2cc(NC(=O)c3ccccc3)on2)cc1	·	·	·	-2.2	0.7
CCc1ccccc1N1CC23C=CC(O2)C(C(=O)OC)C3C1=O (stereo not drawn)	3.0	-3.5%	·	1.7	4.5	Arbovirus inh repeat=-0.7
Cc1cccc(N2CCN(S(=O)(=O)c3ccc4c(c3)NC(=O)CS4)CC2)c1C	·	·	·	16.3	1.5
COc1ccccc1CN1CCNC(=O)C1CC(=O)NCCC1=CCCCC1 (stereo not drawn)	5.4	8.2%	·	2.9	-11.6
COC(=O)c1sc(-c2cccs2)cc1N	·	1.9%	·	0.0	-3.2
COc1cc(C(=O)O/N=C2/C=CC(=O)C(C)=C2C)cc(OC)c1OC	-34.3	·	-48.7	·	·
C/C(=N\NC(=O)c1ccccc1O)c1cccc(NC(=O)c2ccccc2)c1	·	·	·	-1.2	5.0
O=C(Nc1ccc(Cl)cc1)Nc1ccc(Br)cn1	·	·	·	2.0	3.7
COc1ccc(Cl)cc1NC(=O)c1cc(-c2ccc(C)cc2O)n[nH]1	·	0.8%	·	0.7	2.6
COc1ccc(NC(=O)N2CCC(Cc3ccccc3)CC2)cc1	7.6	-4.0%	·	2.2	5.2
COc1ccc(C(=O)C[n+]2ccc3c(c2)nc(-c2ccc(OC)cc2OC)n3C)cc1	9.2	61.8%	-3.3	-1.7	98.6

3 compounds picked at random from those above:
SMILES	Arbovirus inh	Mtb growth	YopH inh	RecA intein inh	Mtb betalactam	others
Cc1nn(C)cc1NC(=O)c1cc2nc(-c3ccco3)cc(C(F)(F)F)n2n1	-4.6	-5.7%	·	-1.7	1.2
COc1ccc(C(=O)C[n+]2ccc3c(c2)nc(-c2ccc(OC)cc2OC)n3C)cc1	9.2	61.8%	-3.3	-1.7	98.6
O=C(Nc1ccc(Cl)cc1)Nc1ccc(Br)cn1	·	·	·	2.0	3.7

The listing picks up, repeating the two entries before the break.
SMILES	Arbovirus inh	Mtb growth	YopH inh	RecA intein inh	Mtb betalactam	others
COc1ccc(NC(=O)N2CCC(Cc3ccccc3)CC2)cc1	7.6	-4.0%	·	2.2	5.2
COc1ccc(C(=O)C[n+]2ccc3c(c2)nc(-c2ccc(OC)cc2OC)n3C)cc1	9.2	61.8%	-3.3	-1.7	98.6
Cn1c(SCc2ccccc2)nc(C(F)(F)F)cc1=O	0.3	9.5%	·	0.4	0.3
COc1ccc(S(=O)(=O)N(C)c2ccc(C(=O)NC3CCCC3)cc2)cc1	3.3	2.0%	·	4.8	0.9
CC(C)=CCc1c(O)c(CC=C(C)C)c2c(c1O)C(=O)CC(c1ccc(O)cc1)O2 (stereo not drawn)	-4.7	1.4%	·	2.1	2.4
C=CCN1CCN(C(c2ccccc2OC)c2nnnn2C(C)(C)C)CC1 (stereo not drawn)	1.3	-8.3%	·	-1.2	5.4
CCOC(=O)c1c(-c2ccccc2)oc2ccc(OCC)cc12	7.2	10.0%	-32.2	7.4	77.5
O=C(CSc1ccc(Cl)cc1)Nc1ccccc1N1CCN(C(=O)c2ccc(Cl)cc2)CC1	11.6	8.5%	-27.0	0.5	0.6
Cc1cc(C(=O)N[C@H](c2ccccc2)[C@@]2(C)C[C@@H]2[C@@H](C)C(=O)Nc2ccc3ccccc3c2)n(C)n1	-28.8	23.7%	-19.7	19.7	97.7
CCC(C)C(=O)Nc1ccc([N+](=O)[O-])cc1OC (stereo not drawn)	-3.9	9.0%	·	-9.5	-13.9
Fc1ccc(-c2nnc3n2CCCCC3)cc1	6.6	-4.5%	·	-0.3	-0.4
O=C1CC2OCC=C3CN4CCC56c7cc([N+](=O)[O-])ccc7N1C5C2C3CC46 (stereo not drawn)	9.5	-1.6%	·	-1.1	-0.6
O=C(C#Cc1ccccc1)c1ccc([N+](=O)[O-])cc1	-43.6	·	-37.3	0.8	·
O=C1NC(=O)C(CC(=O)N(c2ccccc2)C2(C(=O)NC3CCCC3)CCCCC2)N1 (stereo not drawn)	1.5	2.4%	-29.0	-4.2	-5.8
CC1(C)CC(=O)C2=C(C1)OC(N)=C(C#N)C2C#Cc1ccccc1 (stereo not drawn)	4.6	-12.1%	-35.8	15.7	96.4
NC(=O)CNc1n[nH]c(=S)[nH]c1=O	6.6	-6.9%	·	3.3	1.5
CO/N=C/C=C1/N(C)c2ccccc2C1(C)C	-1.2	-2.7%	·	-1.1	-3.1

By substructure, those above containing an aryl thioether with sulfur outside any ring.
SMILES	Arbovirus inh	Mtb growth	YopH inh	RecA intein inh	Mtb betalactam	others
COc1cc(SC)ccc1C(=O)Nc1c(C)cccc1C	-1.3	8.5%	·	0.1	92.3
Cn1c(SCc2ccccc2)nc(C(F)(F)F)cc1=O	0.3	9.5%	·	0.4	0.3
O=C(CSc1ccc(Cl)cc1)Nc1ccccc1N1CCN(C(=O)c2ccc(Cl)cc2)CC1	11.6	8.5%	-27.0	0.5	0.6

Continued:
SMILES	Arbovirus inh	Mtb growth	YopH inh	RecA intein inh	Mtb betalactam	others
c1ccc(CNc2c3c(nc4ncnn24)CCCC3)nc1	1.8	-2.6%	-20.4	-2.2	-1.4
COc1ccc(/C=C/C(=O)Oc2cc(O)cc(O)c2)cc1	·	-1.5%	·	3.2	8.5
CCOc1ccc2nc(Cl)c(C3CC(c4ccccc4)=NN3C(=O)c3cccs3)cc2c1 (stereo not drawn)	-32.7	1.4%	-14.3	-1.7	-0.1
COc1ccc(N(CC(=O)Nc2cc(C)on2)S(=O)(=O)c2cc(C)ccc2C)cc1	0.3	-11.1%	-34.8	9.6	-3.3
C/C(=N\NS(=O)(=O)c1ccc(C)cc1)c1ccc(Br)s1	-9.8	1.9%	3.4	-2.7	5.4
Cc1nn(Cc2ccc(Cl)cc2)c(C)c1NC(=O)/C=C/c1cnn(C)c1	-13.6	24.7%	-17.2	-0.5	-3.4
COc1ccc(Cl)cc1NC(=O)CSc1nc(NS(=O)(=O)c2ccc(C)cc2)cc(=O)[nH]1	·	·	·	-0.6	12.3
C=CC[C@@H]1C=C[C@H](O/N=C/[C@@H](NS(=O)(=O)c2ccc(C)cc2)[C@H](C)/C=C/CC(=O)OC)[C@@H](CO)O1	2.8	·	-28.8	1.4	-13.7
CC(=O)Nc1ccc(NC(=O)C(C)OC(=O)CNC(=O)c2sc3ccccc3c2Cl)cc1 (stereo not drawn)	-3.9	-0.4%	-13.8	-2.9	1.2
Cc1c(Cc2ccccc2)c(=O)oc2cc(OCC(=O)N[C@@H](Cc3ccccc3)C(=O)O)ccc12	·	·	·	22.5	-2.8
Cc1ccccc1Cn1c([N+](=O)[O-])cnc1C	-7.8	-6.5%	-14.7	-0.8	3.6
O=C(CSc1nnc(Cc2cccs2)n1CCc1ccccc1)N1CCCc2ccccc21	-2.9	5.0%	2.9	5.9	·
CCNC(=O)C(=O)NCCC1CCCCN1S(=O)(=O)c1cccs1 (stereo not drawn)	·	·	·	0.5	-13.5
COc1ccc(CC2(CO)CCN(Cc3ccc(OC(F)(F)F)cc3)CC2)cc1	-5.5	10.7%	·	3.3	-9.2
Cc1c(Cl)cccc1NC(=S)N1CCCCCC1	·	·	·	3.2	5.7
COc1ccc(-c2c(NC(=O)c3ccco3)n(C)c3ccccc3c2=O)cc1	6.0	2.2%	-23.9	-1.8	6.1
O=S(=O)(c1ccc2oc3ccc(S(=O)(=O)N4CCCCC4)cc3c2c1)N1CCCCC1	-4.9	-8.5%	-27.9	-1.5	-11.5
O=C(NCc1cccc(Br)c1)C1CC(c2ccccc2[N+](=O)[O-])=NO1 (stereo not drawn)	·	14.1%	·	-3.0	0.2
COC(=O)N1c2ccccc2C=Cc2ccccc21	·	·	·	0.3	-1.5
COc1ccc2cc(CN(Cc3cccnc3)Cc3nnnn3Cc3ccccc3)c(=O)[nH]c2c1	2.5	-5.5%	-34.9	0.7	-2.3
OCc1cnc(SCc2ccccc2)n1Cc1ccccc1	2.3	-0.1%	·	2.0	-0.5
O=C(CCS(=O)(=O)c1ccc(F)cc1)Nc1nc(-c2ccccn2)cs1	·	·	·	2.5	90.9
Cc1cccc(NC(=O)N2CCC(c3nc4ccccc4o3)CC2)c1	-4.6	23.3%	-30.7	1.3	3.8
CC(=O)Nc1cccc(Oc2ccc3c(c2)C(=O)N(CCC(=O)O)C3=O)c1	-2.1	-12.3%	-31.2	-2.8	-11.3
O=c1[nH]c(=S)[nH]c(O)c1N=Nc1ccc(SC(F)F)cc1	·	4.1%	·	-0.1	?
CC(C)(C)NS(=O)(=O)CC12CCC(CC1=O)C2(C)C (stereo not drawn)	9.1	1.0%	-10.1	0.7	1.2
Cc1ccc(SCCC(=O)N/N=C/c2ccccc2O)cc1	-25.5	-3.2%	-34.5	-0.6	8.7
COc1ccc(NC(=O)Cc2c(F)cccc2Cl)c(OC)c1	1.5	11.8%	6.1	4.0	3.9
CCOc1ccc(N(CC(N)=O)S(=O)(=O)c2ccc(F)cc2)cc1	-1.0	0.5%	-25.3	-13.0	-1.0
CCC(=O)N=C1SC2CS(=O)(=O)CC2N1c1cccc(OC)c1 (stereo not drawn)	8.4	-8.1%	-16.0	-2.1	-7.4
Cc1cccc(C)c1OCC(=O)NNC(=O)CCNC(=O)c1ccco1	·	·	·	-1.5	-1.3
O=C1[C@H]2[C@@H](c3ccc(F)cc3)N3C(=O)N(c4cccc(Cl)c4)C(=O)[C@@]3(Cc3ccc(Cl)cc3)[C@H]2C(=O)N1C1CCCCC1	·	·	·	5.3	-19.9
CC(C)OP(=O)(OC(C)C)C(NCc1ccccc1)c1ccccc1 (stereo not drawn)	2.2	4.8%	·	1.0	-2.9
O=S(=O)(NCCSc1nc2ccccc2o1)c1ccccc1	-2.8	7.8%	-25.7	1.0	13.5	Arbovirus inh repeat=7.5
O=C(CN1CCCC1)N1c2ccccc2Sc2ccc(C(F)(F)F)cc21	14.3	-4.8%	-17.1	-5.3	-4.4
O=C(Cn1nnc2ccccc21)Nc1ccccc1[N+](=O)[O-]	-1.2	-4.9%	·	0.0	3.5
O=C(NNC(=O)C1CC2CCC1C2)c1sc2ccccc2c1Cl (stereo not drawn)	0.6	0.5%	-15.7	5.0	-0.2
CC/C(=N\NC(=O)C1CC1)c1cccc(Cl)c1	0.4	3.9%	·	1.8	1.5
O=C(c1cnccn1)N1CCc2c([nH]c3ccccc23)C1c1cccc(Cl)c1 (stereo not drawn)	-10.1	7.2%	·	13.5	6.3
COC(=O)C1=C(C)Nc2nc(SCc3ccccc3)[nH]c(=O)c2C1c1cccs1 (stereo not drawn)	4.5	·	-16.9	1.0	-0.3
Cc1ccc(N(C(C)C(=O)Nc2ccccc2C(=O)N2CCOCC2)S(C)(=O)=O)cc1C (stereo not drawn)	7.8	0.6%	-9.3	3.5	-3.3
Cc1ccccc1-n1nc(CSc2nc3ccccc3[nH]2)c(-c2ccccc2)c1N	39.9*	10.2%	-40.3	6.1	19.1
Cn1c(CNc2ccc(Cl)cc2)nnc1SCCN1CCCCC1	-23.9	3.3%	-32.1	1.7	-9.2
CCC(=O)Nc1nc(C)c(C(=O)NC2CCCCC2)s1	-3.5	-3.9%	-15.4	0.6	2.7
CN(C)c1ccc(/C=N/NC(=O)COc2ccccc2)cc1	1.1	-0.1%	·	-1.4	-3.7
CCOC(=O)N1CCC(NC(=O)CSc2cc(=O)n(C)c3ccccc23)CC1	3.4	-5.8%	-23.4	-2.2	-7.6
CCc1ccc(C(=O)NNC(=O)c2cc(S(=O)(=O)N(C)C)ccc2N2CCCC2)cc1	·	·	·	2.0	-18.2
O=C1C2C3C=CC(C3)C2C(=O)N1CCc1ccccc1 (stereo not drawn)	2.7	6.8%	-40.6	-0.2	2.5
NC(=O)c1cc[n+](Cc2ccccc2Cl)cc1	·	·	·	-2.3	-3.8
CC(=O)Nc1ccc(OS(=O)(=O)c2ccc(C)cc2C)cc1	-11.4	5.2%	·	-2.4	-3.4
CC1(c2ccc(Cl)cc2)NC(=O)N(CC(=O)NC(=O)NCc2ccco2)C1=O (stereo not drawn)	11.4	-5.2%	-14.6	-0.5	1.4
CCCCOCC1CC(CC#CCN2CCCCC2)C(=O)O1 (stereo not drawn)	-8.2	2.8%	·	·	·
CCOc1c(C)cnc2c1c(=O)n(Cc1ccc(Cl)cc1)c(=O)n2C	·	·	·	-0.9	-5.3
